Source: PubChem (National Center for Advancing Translational Sciences (NCATS))
ClpP mod = qHTS Assay for Activators of ClpP. actives 1.9% (n = 340,000). AID 651965, 2013. Potency, µM (top dose mostly 57.5 µM), for the others: at the top dose activity change, negative = active. purified B. subtilis ClpP, FRET peptide cleavage, 20 min; active = well fitted falling curve with a large enough effect; inconclusive = small, poorly fitted or top-dose-only effect; inactive = no such curve, though single readings can be large or run the other way; further: potency means the concentration at half of the fitted maximal effect; the source files actives as falling curves though it sought activators and does not explain the sign; nearly all actives have a fitted effect of over 65% in size; many hits overshoot -100%
Target sequence (P80244 whole entry, looked up): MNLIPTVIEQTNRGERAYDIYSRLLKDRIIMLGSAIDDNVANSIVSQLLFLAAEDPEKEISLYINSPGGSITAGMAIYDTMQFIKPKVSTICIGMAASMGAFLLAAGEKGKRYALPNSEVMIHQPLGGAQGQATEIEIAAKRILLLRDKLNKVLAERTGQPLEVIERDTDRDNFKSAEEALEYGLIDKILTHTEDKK
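FRET quenching reversal measured ClpP activation: 10 microg/mL B. subtilis ClpP at pH 8 with the FRET-FV decapeptide, read at 430 nm after 320 nm excitation. The 20-min minus 0-min signal was scaled between DMSO/no-enzyme wells and ADEP (5.8 microM final).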
Sfp PPTase inh = Sfp phosphopantetheinyl transferase inhibition; AID 1490; Q9F4F7; Potency, µM, for inactives: max response, negative = inhibition, hits mostly inhibitors; Biochemical Sfp PPTase activity, qHTS; actives 3.5% (n = 310,000); active means well fitted inhibition curve with a large enough effect; inconclusive means small, poorly fitted or top-dose-only effect, or another doubt; inactive means no such curve, though single readings can be large or run the other way;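 further: the enzyme is Sfp with the accession as filed and its product quenches rhodamine fluorescence; potency means the concentration at half of the fitted maximal effect; 0% = enzyme reaction without inhibitor and -100% = no enzyme wells; top concentration of the series not given in the record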
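Fluorescence-quenching assay: 15 nM Sfp-PPTase preincubated 15 min at room temperature with compound, then 5 uM rhodamine-CoA and 12.5 uM BHQ-2-labelled YbbR peptide added. Fluorescence (ex 525/em 598 nm) read at start and after 30 min; difference gives rate.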
gsp ag = activates gsp, the McCune-Albright syndrome mutation | gsp mutant cells, cAMP HTRF, 30 min; control for the full effect not named in the record | Potency, µM (doses to about 76.9 µM), for inactives: top-dose activation (cAMP increase), most hits filed as activators | actives 0.13% (n = 340,000); active = well fitted activation curve with a large enough effect; inconclusive = small, poorly fitted or top-dose-only effect, or another doubt; inactive = no such curve, though single readings can be large or run the other way; cell line not stated here;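 further: phosphodiesterase inhibitor Ro 20-1724 added with compounds to block cAMP breakdown; potency means the concentration at half of the fitted maximal effect; nearly all actives have a fitted effect of over 60% in size; about a fifth of the inactives were tested at one dose only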
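Cells in DMEM/10% FBS with G418 were pretreated with compounds in DMSO plus […] (300 uM stock) for 30 min at 37C. cAMP was measured by HTRF (cAMP-d2 plus anti-cAMP antibody-K) after 30 min at room temperature.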
PINK1 modulator = changes PINK1 expression | PINK1 immunofluorescence, high-content cytometry, 24 h | Potency, µM (highest dose often 76.6 µM), for inactives: at the top dose activation (PINK1 increase), actives largely listed as activators | actives 0.2% (n = 410,000) | AID 624263; active = well fitted activation curve with a large enough effect; inconclusive = small, poorly fitted or top-dose-only effect; inactive = flat fitted curve, though single readings scatter; cell line not stated here;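 further: potency means the concentration at half of the fitted maximal effect; % of control where 0% means no effect; nearly all actives have a fitted effect of over 65% in size; a mitochondrial uncoupler was the plate control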
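Decision-based qHTS: stable cells, 24 h exposure to five compound concentrations, CCCP as control. Fixed cells stained for PINK1 plus nuclear, mitochondrial and cell markers, cytometer read.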
gsp antag = gsp mutant antagonism; actives 0.4% (n = 340,000); Potency, µM (doses to about 76.9 µM), inactives show top-dose activity change, negative = inhibition, hits mostly inhibitors; gsp-mutant cells, cAMP HTRF, 30 min; control for the full effect not named in the record; active = falling curve of any shape with a large fitted effect; inconclusive = falling curve, mostly with a smaller effect; inactive = flat or rising curve; cell line not stated here;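 further: intracellular cAMP measured with PDE inhibitor Ro 20-1724 present during compound exposure; potency means the concentration at half of the fitted maximal effect; on the % scale 0 is the no-effect control and ±100 the full control effect; nearly all actives have a fitted effect of over 65% in size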
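HTRF cAMP measurement after 30 min RT detection following 30 min, 37C compound treatment alongside […] (added as 300 uM solution) in G418-selected cells seeded at 2000/well and grown 16–24 h.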
D2 ag = agonists of human D2 dopamine receptor (beta-arrestin) | DiscoveRx PathHunter D2 beta-arrestin, luminescence, 90 min; 100% = 57 uM dopamine signal | activation, % (no concentration beside the values) | actives 0.084% (n = 360,000) | P14416; in the data active = activation above about 40%; inconclusive = about 15% to 40%; inactive = below about 15%; further: compound concentration not given in the record; the text of the record calls up to 30% inactive
Target sequence (P14416 whole entry, looked up): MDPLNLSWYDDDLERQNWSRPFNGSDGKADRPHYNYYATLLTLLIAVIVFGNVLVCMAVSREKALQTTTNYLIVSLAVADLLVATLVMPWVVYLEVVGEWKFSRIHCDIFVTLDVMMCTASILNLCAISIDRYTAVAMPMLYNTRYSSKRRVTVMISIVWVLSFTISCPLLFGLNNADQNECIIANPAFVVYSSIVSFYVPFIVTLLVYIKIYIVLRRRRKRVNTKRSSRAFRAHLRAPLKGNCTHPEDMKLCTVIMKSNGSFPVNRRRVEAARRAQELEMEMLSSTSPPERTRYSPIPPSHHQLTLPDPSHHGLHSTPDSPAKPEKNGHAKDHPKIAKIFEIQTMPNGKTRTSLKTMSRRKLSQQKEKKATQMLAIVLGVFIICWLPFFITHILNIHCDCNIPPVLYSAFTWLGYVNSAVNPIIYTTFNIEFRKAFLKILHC
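DiscoveRx PathHunter D2 beta-arrestin cells (2,100/well) attached overnight, then compound-stimulated 90 min at 37 C in HBSS/10 mM HEPES/0.1% Tween-20 buffer; beta-galactosidase complementation read by luminescence after 1 h at ambient temperature. Dopamine 57 uM final (EC100) as control.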
Menin MLL FP FL = inhibitors of human menin-MLL interaction, wild-type MLL peptide. Fluorescence polarization, fluorescein-MLL peptide displacement from menin. FP activity change, % at 61.4 µM. 290,000 tested, under 10 active. AID 1766; inconclusive = falling polarisation curve, or a change in total fluorescence; inactive = total fluorescence flat and polarisation flat or rising; no compound was filed as active; the % refers to the polarisation; negative = inhibition;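 further: % of control where 0% means no effect; inhibitors lower the polarisation; unlabelled MLL peptide was the positive control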
Starred values were filed as active, the others as inactive; u = inconclusive; x = no result given; & = joins results of further samples; [ ] = another dose, or the depositor's remark.

Compound	PINK1 modulator	gsp antag	Menin MLL FP FL	D2 ag	gsp ag	ClpP mod	Sfp PPTase inh
CC(=O)NCCC(=O)N1CCCC(CNC(=O)c2ccc(-c3ccccc3)cc2)C1 (stereo unspecified)	-0.2%	8%	0.5	-5.2	u	x	-2%
Cc1ccsc1/C=c1\sc2ncnn2c1=O	4.2%[38.3 µM]	-8%	3.5	-1.7	-1%	1.4%	u
O=C(COC(=O)/C=C/c1ccc(Cl)c(Cl)c1)NC1CC1	0.1%	-7%	x	-2.1	4%	-0.9%	x
O=C(N/N=C/c1ccco1)C(O)c1ccccc1 (stereo unspecified)	-0.3%	4%	1.6	-2.0	-14%	-0.5%	-3%
NC(=O)NC(=O)C(OC(=O)CCNS(=O)(=O)c1ccccc1)c1ccccc1 (stereo unspecified)	0.2%	2%	x	-0.7	-1%[15.4 µM]	x	x
Cc1cc(C)nc(SCc2ccc(Cl)cc2)n1	-0.3%	5%	-4.3	4.8	-13%[15.4 µM]	-3.2%	-2%
COC(=O)C1C(=O)c2c(C)noc2CC1(C)C (stereo unspecified)	-0.2%	19%	3.6	-1.8	u	1.2%	12%
O=C(NC(=S)Nc1ccc(CN2CCOCC2)cc1)c1ccc(-c2ccc(Br)cc2)o1	0.6%	6%	-0.5	-4.4	2%	x	-5%
O=C(c1cccc(Oc2c(Cl)cccc2[N+](=O)[O-])c1)N1CCOCC1	2.9%	9%	x	-7.3	-33%[inhibitor]	u	13%
COC(=O)CNC(=O)CSc1nc(N)cc(=O)[nH]1	-0.1%	11%	1.1	-0.3	12%	-1.5%	-9%
COc1cccc(NC(=S)Nc2cc(C(=O)O)ccc2N2CC3CC(C2)c2cccc(=O)n2C3)c1 (stereo unspecified)	-1.8%	3%	2.7	-2.0	-43%	-4.5%	4%
COc1cc2c(cc1OC)CN(C(=O)C1CCC(=O)N(CCCN3CCOCC3)C1)CC2 (stereo unspecified)	-0.4%	12%	-2.5	1.1	-19%	-6.7%	7%
Cc1ccc(NC(=O)c2cccc(C(=O)Nc3ccc(C)c(C)c3)n2)cc1C	4.1%	-2%	0.6	-3.8	7%[15.4 µM]	-17%	-11%
Cc1ccc(NC(=S)NCc2ccc3c(c2)OCO3)cc1	-0.9%	8%	0.5	-1.9	15%[15.4 µM]	1.3%	-9%
C=CCc1ccc(OCCOCCOc2cccc3cccnc23)c(OC)c1	-0.4%	-11%	6.0	-4.7	-8%	-7.8%	13%
CCOc1ccc2nc3sc(C(=O)N4CCOCC4)c(N)c3cc2c1	-0.4%	-20%	-3.6	-2.7	6%[15.4 µM]	x	32µM*
CCc1nc2c(OCC3COc4ccccc4O3)cccn2c1N(C)C(=O)c1cccc(OC)c1 (stereo unspecified)	1.0%	x	x	0.4	x	-2.4%	x
COc1ccc(N2CCN(C(=O)Cc3ccc(Cl)cc3)CC2)cc1	2.9%	-1%	-4.2	13	-9%[15.4 µM]	0.1%	-2%
Cc1ccc(S(=O)(=O)CC(=O)c2cc3cccc(C)c3oc2=O)cc1	14%	-1%	-1.9	-5.0	0%	-0.3%	3%
COc1ccc(-c2csc(-n3ncc(C(=O)O)c3C(F)(F)F)n2)cc1	-0.6%	-16%	-16	-0.4	u	-10%	5%
C=Cc1ccc(CC2(C)C(=O)Nc3ccc(-c4cccnc4)cc32)cc1 (stereo unspecified)	-1.2%	x	x	-2.8	x	-3.1%	x
CCC1COCCS(=O)(=O)N1Cc1cccc(Cl)c1 (stereo unspecified)	-0.7%	13%	-1.0	-1.8	-25%	1.9%&1.0%	3%
O=C(CSCc1c(Cl)cccc1Cl)Nc1ccccc1C(=O)N1CCOCC1	0.4%	2%	1.1	-4.4	-2%	-0.3%	0%
COCCNc1nc2cc(-c3ccc(F)cc3)sc2c(=O)n1C	-0.2%	x	x	-2.3	x	u	x
COc1ccccc1NC(=O)N1CCn2c(nc3ccccc32)C1	3.0%[38.3 µM]	4%	3.5	-2.9	-5%	-2.9%	14%
Oc1oc(-c2ccccc2)nc1/C=N/c1ccccn1	-0.9%	4%	3.7	3.1	-4%[15.4 µM]	x	14%
COc1ncccc1C(=O)N1CCCC(C(=O)c2cccc(OC(C)C)c2)C1 (stereo unspecified)	-1.3%	-25%	-5.0	0.3	0%[15.4 µM]	-0.9%	16%
Cc1ccc(S(=O)(=O)N2CCN(c3ccc(S(=O)(=O)N4CCOCC4)cn3)CC2)cc1	u	3%	1.0	1.4	-25%	-4.7%	7%
COCCCn1c(=N)c(C(N)=S)cc2c(=O)n3cccc(C)c3nc21	-1.3%	-7%	x	-3.7	46%[15.4 µM]	x	x
COc1ccc(C(=O)Nc2ccc(NC(=O)c3ccccc3F)cn2)cc1	3.6%	5%	-0.5	0.5	u	x	8%
COc1ccc(S(=O)(=O)N(C)C[C@H]2Oc3cc(Br)ccc3S(=O)(=O)N([C@H](C)CO)C[C@H]2C)cc1	0.9%	x	x	-11	-44%[inhibitor]	-1.8%	x
CC(C)n1cc(CN2CCCC(CO)(Cc3cccc(Cl)c3)C2)cn1 (stereo unspecified)	-0.1%	12%	8.5	-2.5	-2%[15.4 µM]	x	-1%
CCCS(=O)(=O)NC(=O)C1(C)CCN(C(=O)c2ccc(F)c(C)c2)C1 (stereo unspecified)	-0.4%	x	x	-3.4	x	-1.6%	x
Cc1nn(CC(=O)N2CCN(c3ccccc3)CC2)c(C)c1[N+](=O)[O-]	-3.4%	3%	-9.4	-3.4	-7%	x	1%
CCOC(=O)c1ccc(NC(=O)c2ccc3c(c2)C(=O)N(Cc2cccnc2)C3=O)cc1	1.2%	35µM*	x	7.6	u	0.7%	-1%
CCN(CC)C(=O)CCCc1c[nH]c2ccccc12	-0.4%	10%	-8.7	-3.3	-2%[15.4 µM]	x	0%
Cc1nn(C)c(C(=O)NNC(=S)NCc2ccccc2)c1Cl	-0.5%	-10%	-2.3	-4.4	19%	0.6%	11%
Cc1ccc(N2CC(C(=O)NCc3cccs3)CC2=O)cc1 (stereo unspecified)	-1.8%	5%	1.2	0.0	-3%	-3.4%	8%
Cn1c(=O)c2c(nc(OCc3ccc4c(c3)OCO4)n2Cc2ccccc2Cl)n(C)c1=O	-4.2%	5%	6.5	0.4	-37%[inhibitor]	-1.8%	10%
CCOC(=O)c1cnc2ccc(C)cc2c1N(C)Cc1ccccc1	2.1%	-17%	-1.8	0.0	25%	x	-29%
OCC(CO)(CO)N=Cc1cc(Br)ccc1O	0.3%[38.3 µM]	-5%	0.4	-5.8	26%	-0.4%	-7%
O=C(C1CCC(=O)N(C2CCCC2)C1)N1CCC(Oc2cccc(F)c2)CC1 (stereo unspecified)	0.3%	-3%	0.6	9.2	0%	-0.1%	12%
CCn1c(SCC(=O)n2nc(C)cc2C)nnc1-c1ccc2c(c1)OCO2	2.2%	0%	-2.5	0.0	0%	-9.6%	3%
COc1ccc(-n2nc3cc(C)c(NC(=S)NC(=O)c4ccccc4C)cc3n2)cc1	u	13%	2.4	-1.8	37%	217%	-15%
COc1ccc(OCCn2c(C)c(/C=N/n3cnnc3)c3ccccc32)cc1	1.8%	9%	0.4	1.8	-31%[inhibitor]	-1.9%	15%
O=c1c(-c2ccc(F)cc2)nc2cncnc2n1Cc1ccc(F)cc1	2.2%	x	-0.6	x	x	x	-8%
CCOc1ncccc1C(=O)OCC(=O)Nc1c(C)cc(C)cc1C	-2.2%	7%	0.7	-0.8	-38%[inhibitor]	-5.4%	12%
Cc1cc(NC(=O)CSc2nc3c(C)cccc3cc2C)no1	0.8%	-1%	x	-4.5	7%[15.4 µM]	x	10%

Structures listed so far with fluorine:
Compound	PINK1 modulator	gsp antag	Menin MLL FP FL	D2 ag	gsp ag	ClpP mod	Sfp PPTase inh
COc1ccc(-c2csc(-n3ncc(C(=O)O)c3C(F)(F)F)n2)cc1	-0.6%	-16%	-16	-0.4	u	-10%	5%
COCCNc1nc2cc(-c3ccc(F)cc3)sc2c(=O)n1C	-0.2%	x	x	-2.3	x	u	x
COc1ccc(C(=O)Nc2ccc(NC(=O)c3ccccc3F)cn2)cc1	3.6%	5%	-0.5	0.5	u	x	8%
CCCS(=O)(=O)NC(=O)C1(C)CCN(C(=O)c2ccc(F)c(C)c2)C1 (stereo unspecified)	-0.4%	x	x	-3.4	x	-1.6%	x
O=C(C1CCC(=O)N(C2CCCC2)C1)N1CCC(Oc2cccc(F)c2)CC1 (stereo unspecified)	0.3%	-3%	0.6	9.2	0%	-0.1%	12%
O=c1c(-c2ccc(F)cc2)nc2cncnc2n1Cc1ccc(F)cc1	2.2%	x	-0.6	x	x	x	-8%
